Vaccinia stage: blocks a specific stage of Vaccinia orthopoxvirus infection, primary screen, cell-based, single point; AID 1053133, 2014; activity change (mCherry), % (concentration not given with the values); Vaccinia-infected cells, mCherry/Venus stage reporter fluorescence; stronger effect = lower value; some inactives read as strong as hits; 89,000 compounds, 0.01% hits;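 active means mCherry past -33% and 40 or more points under the early reporter, replicates agreeing; inconclusive means past -33% without that gap or agreement; tested in A549 cells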;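 further: scaled between vehicle wells and reference inhibitor wells; 23 nL library stock went into each well; one replicate is shown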
Vaccinia stage Venus: also measured in Vaccinia stage; calls as there; activity change (Venus), %; measured here: Venus reporter, other viral stage;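 negative = less Venus signal; first of two replicates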
An asterisk follows results filed as active; ? = inconclusive; / = not tested or not shown.

SMILES	Vaccinia stage	Vaccinia stage Venus
COc1ccccc1NC(=O)N[C@H]1CC[C@@H](CC(=O)N[C@H](C)c2ccccc2)O[C@@H]1CO	-2	4
COc1ccc(S(=O)(=O)N(C)C[C@@H]2Oc3c(NC(=O)C4CC4)cccc3C(=O)N([C@@H](C)CO)C[C@H]2C)cc1	3	17
C[C@H](CO)N1C[C@H](C)[C@@H](CN(C)CC2CC2)OCc2cnnn2CCCC1=O	26	20
C[C@H](CO)N1C[C@H](C)[C@@H](CN(C)Cc2ccc(Cl)c(Cl)c2)Oc2ccc(N(C)C)cc2CC1=O	?	/
CCCNC(=O)C[C@@H]1C[C@@H]2c3cc(NS(=O)(=O)c4cccc(OC)c4)ccc3O[C@@H]2[C@@H](CO)O1	9	10
O=S(=O)(c1ccccc1F)N1CCCCN2[C@@H](CO)[C@@H](c3ccc(-c4cccnc4)cc3)[C@@H]2C1	8	0
COc1cccc(S(=O)(=O)N(C)C[C@@H]2OCc3cnnn3CCCC(=O)N([C@@H](C)CO)C[C@H]2C)c1	10	10
CCNC(=O)C[C@@H]1CC[C@@H](NC(=O)C2CC2)[C@H](CO)O1	8	16
O=C(C[C@H]1C[C@H]2c3cc(NS(=O)(=O)c4ccccc4)ccc3O[C@H]2[C@H](CO)O1)NC1CCCC1	-5	-3
COc1cccc(CNC(=O)C[C@@H]2C=C[C@H](NS(=O)(=O)c3ccccc3OC)[C@H](CO)O2)c1	5	6

3 of these compounds, set out differently.
COc1ccccc1NC(=O)N[C@H]1CC[C@@H](CC(=O)N[C@H](C)c2ccccc2)O[C@@H]1CO
- Vaccinia stage: -2
- Vaccinia stage Venus: 4
COc1ccc(S(=O)(=O)N(C)C[C@@H]2Oc3c(NC(=O)C4CC4)cccc3C(=O)N([C@@H](C)CO)C[C@H]2C)cc1
- Vaccinia stage: 3
- Vaccinia stage Venus: 17
C[C@H](CO)N1C[C@H](C)[C@@H](CN(C)CC2CC2)OCc2cnnn2CCCC1=O
- Vaccinia stage: 26
- Vaccinia stage Venus: 20

Remaining list, next part
SMILES	Vaccinia stage	Vaccinia stage Venus
Cc1ccc(S(=O)(=O)Nc2ccc3c(c2)CC(=O)N([C@@H](C)CO)C[C@@H](C)[C@H](CN(C)S(=O)(=O)c2cccs2)O3)cc1	-6	-4
C[C@H](CO)N1C[C@H](C)[C@H](CN(C)Cc2ccccc2)OCc2ccccc2-c2ccccc2C1=O	-7	-8
C[C@H](CO)N1C[C@H](C)[C@H](CN(C)C(=O)c2ccncc2)Oc2ncc(C#CC3CCCCC3)cc2C1=O	-1	-2
C[C@H]1CN([C@@H](C)CO)C(=O)Cc2cc(NC(=O)CCCN(C)C)ccc2O[C@@H]1CN(C)Cc1ccc(-c2ccccc2)cc1	-11	-12
COc1ccc2c3c(n(C)c2c1)[C@H](CO)N(CC1CC1)CC31CCN(Cc2ccc(F)cc2)CC1	?	/
C[C@@H]1CCCCO[C@@H](CN(C)C(=O)Nc2ccccc2)[C@@H](C)CN([C@@H](C)CO)C(=O)c2cc(NC(=O)Nc3cccc4ccccc34)ccc2O1	0	-2
C[C@H](CO)N1C[C@H](C)[C@@H](CN(C)S(C)(=O)=O)Oc2ccc(NC(=O)Cn3cnnn3)cc2C1=O	16	11
CN1CCN(C(=O)C[C@@H]2CC[C@@H]3[C@H](COC[C@H](O)CN3C(=O)C3CCOCC3)O2)CC1	17	13
C/C=C/c1ccccc1[C@H]1[C@H](C#N)N(c2nc(CC)cs2)[C@H]1CO	-1	7
COCC(=O)N(C)C[C@H]1Oc2ncc(C#C[C@H](C)O)cc2C(=O)N([C@H](C)CO)C[C@H]1C	13	12
O=C(Cc1ccccc1)N1CCCCN2[C@@H](CO)[C@@H](c3ccc(C#CC4(O)CCCC4)cc3)[C@@H]2C1	-11	-3
Cc1noc(C)c1NC(=O)NCC[C@@H]1CC[C@@H](NC(=O)c2ccccc2)[C@H](CO)O1	10	5
C[C@@H]1CN([C@H](C)CO)C(=O)c2cc(C#CC3CCCCC3)cnc2O[C@H]1CN(C)C(=O)Nc1ccccc1	-25	-19
CO[C@@H]1CN(C)C(=O)c2cc(NC(=O)CC(F)(F)F)ccc2OC[C@@H](C)N(C(=O)C2CCOCC2)C[C@@H]1C	26	24
C[C@@H]1CN([C@@H](C)CO)C(=O)Cc2cc(N(C)C)ccc2O[C@H]1CN(C)Cc1ccc(-c2ccccc2)cc1	?	/
C[C@@H]1CN([C@@H](C)CO)C(=O)Cc2cc(NC(=O)Nc3ccc4c(c3)OCO4)ccc2O[C@@H]1CN(C)Cc1ccc2c(c1)OCO2	-7	-2
CCCC#Cc1ccc([C@H]2[C@@H](CO)N3C(=O)CN(S(=O)(=O)Cc4ccccc4)C[C@@H]23)cc1	3	-1
Cc1ccc(S(=O)(=O)N(C)C[C@H]2Oc3ccc(NC(=O)CCCCCC(=O)Nc4ccccc4N)cc3C(=O)N([C@@H](C)CO)C[C@@H]2C)cc1	18	10
C[C@H]1CCCCO[C@H](CN(C)C(=O)Nc2ccc(C(F)(F)F)cc2)[C@@H](C)CN([C@@H](C)CO)C(=O)c2cc(NS(C)(=O)=O)ccc2O1	?	/
C[C@H]1CN([C@@H](C)CO)C(=O)CCCn2nncc2CO[C@H]1CN(C)Cc1ccc2cccnc2c1	3	1
C[C@H]1CN([C@@H](C)CO)C(=O)c2cccc(NS(=O)(=O)c3cccs3)c2O[C@@H]1CN(C)S(=O)(=O)c1ccc(Cl)cc1	-14	-8
O=C(C[C@@H]1CC[C@@H]2[C@H](COC[C@@H](O)CN2Cc2ccc(C(F)(F)F)cc2)O1)N1CCc2ccccc2C1	?	/
C[C@H](CO)N1C[C@H](C)[C@H](CN(C)S(C)(=O)=O)OCCCC[C@H](C)Oc2ccc(NS(=O)(=O)c3ccccc3)cc2C1=O	7	8
CN(C)C(=O)c1cccc(-c2ccc([C@H]3[C@@H](C#N)N(C(=O)C4CC4)[C@H]3CO)cc2)c1	-4	-3
C[C@H]1CN([C@@H](C)CO)C(=O)c2c(c3ccccc3n2C)-c2ccccc2CO[C@@H]1CN(C)Cc1ccccc1C(F)(F)F	?	/
Cc1noc(C)c1S(=O)(=O)N(C)C[C@H]1OCCCC[C@@H](C)Oc2ccc(NC(=O)NC(C)C)cc2C(=O)N([C@H](C)CO)C[C@@H]1C	20	19
COCc1cn(CC[C@H]2CC[C@H](NC(=O)Nc3ccc(OC)cc3)[C@H](CO)O2)nn1	0	0
CCCN(C)C[C@@H]1Oc2cc(C#CCc3ccccc3)ccc2S(=O)(=O)N([C@H](C)CO)C[C@@H]1C	-26	-12
CCCN(C)C[C@@H]1Oc2cc(-c3ccccc3C)ccc2S(=O)(=O)N([C@H](C)CO)C[C@@H]1C	-18	-9
C[C@@H]1CN([C@@H](C)CO)C(=O)CCCn2nncc2CO[C@H]1CN(C)C(=O)Nc1ccc(C(C)(C)C)cc1	14	15
C[C@H](CO)N1C[C@H](C)[C@H](CN(C)S(=O)(=O)c2ccc(Cl)cc2)Oc2c(NC(=O)Nc3ccc4c(c3)OCO4)cccc2C1=O	7	7
O=C(C[C@@H]1C=C[C@H](NC(=O)C2CCC2)[C@@H](CO)O1)NCCCN1CCOCC1	-1	-1
C[C@H]1CCCCO[C@@H](CN(C)C(=O)Nc2ccc(F)cc2)[C@@H](C)CN([C@@H](C)CO)C(=O)c2cc(NC(=O)C3CCCCC3)ccc2O1	-21	-13
C[C@H]1CN([C@@H](C)CO)C(=O)Cc2cc(NC(=O)Nc3ccc4c(c3)OCO4)ccc2O[C@H]1CN(C)Cc1ccccc1	?	/
C[C@@H]1CN([C@@H](C)CO)C(=O)CCCn2nncc2CO[C@H]1CN(C)C(=O)Nc1cccc(C(F)(F)F)c1	4	1
CCNC(=O)C[C@H]1CC[C@@H]2[C@@H](COc3ccc(NC(=O)Nc4ccccc4F)cc3C(=O)N2C)O1	0	2
O=C(C[C@@H]1C=C[C@@H](NC(=O)c2ccc(F)cc2)[C@@H](CO)O1)NCCc1ccccc1	1	-2
O=C1CN(Cc2ccc(F)cc2)C[C@@H]2[C@@H](c3ccc(Br)cc3)[C@@H](CO)N12	?	/
N#C[C@H]1N[C@@H](CO)[C@@H]1c1ccc(C2=CCCC2)cc1	15	8
COc1cccc(C#Cc2ccc3c(c2)[C@@H]2[C@@H](CCN2C(=O)CC2CC2)[C@H](CO)N3)c1	17	15

By substructure: those above with a cyano group.
SMILES	Vaccinia stage	Vaccinia stage Venus
C/C=C/c1ccccc1[C@H]1[C@H](C#N)N(c2nc(CC)cs2)[C@H]1CO	-1	7
CN(C)C(=O)c1cccc(-c2ccc([C@H]3[C@@H](C#N)N(C(=O)C4CC4)[C@H]3CO)cc2)c1	-4	-3
N#C[C@H]1N[C@@H](CO)[C@@H]1c1ccc(C2=CCCC2)cc1	15	8

Next compounds follow.
SMILES	Vaccinia stage	Vaccinia stage Venus
O=C(C[C@H]1CC[C@@H]2[C@H](COC[C@@H](O)CN2Cc2nccs2)O1)NCc1ccccc1Cl	-3	6
CCN1[C@H](C(=O)NC2Cc3ccccc3C2)[C@@H](CO)[C@@H]2Cn3c(cccc3=O)[C@@H]21	6	9
O=C(Nc1ccc2c(c1)[C@@H]1C[C@H](CC(=O)N3CCCCC3)O[C@@H](CO)[C@@H]1O2)c1cccnc1	14	9
CCCC#Cc1ccc2c(c1)O[C@@H](CN(C)C(=O)c1ccccc1F)[C@H](C)CN([C@H](C)CO)S2(=O)=O	-20	-22
CCCN(C)C[C@@H]1OCCCC[C@H](C)Oc2ccc(N(C)C)cc2C(=O)N([C@H](C)CO)C[C@@H]1C	-10	-14
C[C@H]1CCCCO[C@H](CN(C)Cc2ccncc2)[C@@H](C)CN([C@@H](C)CO)C(=O)c2cc(NC(=O)Nc3cccc4ccccc34)ccc2O1	-18	-13
N#C[C@@H]1[C@H](c2ccc(C3=CCCC3)cc2)[C@@H](CO)N1C(=O)C1CCC1	12	12
O=S(=O)(N[C@@H]1CC[C@@H](CCn2cc(-c3ccccc3F)nn2)O[C@H]1CO)c1ccc(F)cc1	17	6
CO[C@H]1CN(C)C(=O)c2cc(NC(=O)CC(F)(F)F)ccc2OC[C@H](C)NC[C@@H]1C	8	16
C[C@H]1CN([C@@H](C)CO)C(=O)Cc2cc(NS(=O)(=O)c3ccccc3)ccc2O[C@@H]1CN(C)C(=O)Nc1ccccc1	13	10

Record cards, as listed above. Values in the order: Vaccinia stage, Vaccinia stage Venus
Cc1noc(C)c1S(=O)(=O)N(C)C[C@H]1OCCCC[C@@H](C)Oc2ccc(NC(=O)NC(C)C)cc2C(=O)N([C@H](C)CO)C[C@@H]1C across the screens: 20, 19
O=C(C[C@H]1CC[C@@H]2[C@H](COC[C@@H](O)CN2Cc2nccs2)O1)NCc1ccccc1Cl across the screens: -3, 6
C[C@H](CO)N1C[C@H](C)[C@H](CN(C)S(=O)(=O)c2ccc(Cl)cc2)Oc2c(NC(=O)Nc3ccc4c(c3)OCO4)cccc2C1=O across the screens: 7, 7
O=S(=O)(N[C@@H]1CC[C@@H](CCn2cc(-c3ccccc3F)nn2)O[C@H]1CO)c1ccc(F)cc1 across the screens: 17, 6
C[C@@H]1CN([C@@H](C)CO)C(=O)CCCn2nncc2CO[C@H]1CN(C)C(=O)Nc1cccc(C(F)(F)F)c1 across the screens: 4, 1

New compounds follow:
SMILES	Vaccinia stage	Vaccinia stage Venus
C[C@@H]1CN([C@H](C)CO)C(=O)c2cc(C#Cc3ccccc3)cnc2O[C@H]1CN(C)C(=O)c1ccccc1	?	/
COc1ccc(S(=O)(=O)Nc2ccc3c(c2)C(=O)N([C@@H](C)CO)C[C@H](C)[C@H](CN(C)C(=O)C2CCCCC2)OCCCC[C@@H](C)O3)cc1	-35	-30
O=C(C[C@H]1CC[C@@H](NC(=O)NC2CCCCC2)[C@@H](CO)O1)NCc1ccccc1	10	18
C[C@H](CO)N1C[C@H](C)[C@H](CN(C)Cc2ccc(C(F)(F)F)cc2)Oc2ccc(NC(=O)Nc3ccc(F)cc3)cc2CC1=O	?	/
C[C@H](CO)N1C[C@H](C)[C@H](CN(C)C(=O)C2CC2)Oc2ncc(C#CC(C)(C)O)cc2C1=O	11	5
C[C@@H]1CCCCO[C@@H](CN(C)C(=O)Nc2ccc(F)cc2)[C@@H](C)CN([C@H](C)CO)C(=O)c2cc(NS(=O)(=O)c3cccs3)ccc2O1	2	-5
C[C@@H]1CN([C@@H](C)CO)C(=O)c2cc(NS(C)(=O)=O)ccc2O[C@@H]1CN(C)S(C)(=O)=O	-2	4

The list is partial (hit frequency here may not be typical).
